Assay outcomes from PubChem.
GIV Gai3 FP = inhibitors of GIV peptide binding to Galpha-i3, primary screen, biochemical, fluorescence polarization, FITC-GIV GBA peptide, rat Galphai3; Guanine nucleotide-binding protein G(i) subunit alpha-3 (Rattus norvegicus), P08753; AID 1224905, 2016; percent of control (FP), % (concentration not given with the values); 90 min; active compounds read low; scaled: aluminum fluoride 0%, vehicle 100%; 210,000 tested, 0.42% active;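 active = replicate mean at 85% of control or lower, very high polarization wells dropped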;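 note: wells of about 15 µL received 100 nL stock; the first replicate is given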
Target sequence (P08753 whole entry, looked up): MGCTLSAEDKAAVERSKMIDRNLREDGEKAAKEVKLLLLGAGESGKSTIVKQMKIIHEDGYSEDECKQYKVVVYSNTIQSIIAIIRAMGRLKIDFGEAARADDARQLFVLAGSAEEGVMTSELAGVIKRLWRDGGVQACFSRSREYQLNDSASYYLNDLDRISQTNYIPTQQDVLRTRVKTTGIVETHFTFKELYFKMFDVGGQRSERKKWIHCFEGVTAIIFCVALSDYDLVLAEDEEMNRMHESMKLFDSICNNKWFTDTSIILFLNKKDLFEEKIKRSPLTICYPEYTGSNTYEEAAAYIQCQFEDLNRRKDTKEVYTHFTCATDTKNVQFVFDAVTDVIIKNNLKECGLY
* marks the source's active call; other numbers are inactive results. These rows are one share of the data (hit frequency here may not be typical).

GIV Gai3 FP | mol
96 | Cc1noc(C)c1C1CCCN1C(=O)C(C)C (configuration not stated)
101 | Cc1cc(C)c(S(=O)(=O)N2CCC(c3noc(-c4ccc(F)cc4)n3)CC2)c(C)c1
115 | CC(=O)C1=NN(c2ccc(C)cc2)C2(S1)c1ccccc1C(c1ccccc1)=NN2c1ccccc1 (configuration not stated)
101 | COc1ccc([N+](=O)[O-])cc1/C=C1\C(=O)NC(=O)N(c2ccc(Cl)cc2)C1=O
97 | CN(CCO)c1nc(Nc2ccccc2)c2cnn(-c3ccccc3)c2n1
98 | CC(=O)N1CCc2cc(-c3ccc(C(=O)NCCc4c[nH]c5ccc(Cl)cc45)cc3)ccc21
105 | CCC(Sc1nc(NCCOC)c2ccccc2n1)C(=O)NCc1ccco1 (configuration not stated)
110 | CCC12c3ccccc3C(c3ccccc31)C1C(=O)N(c3ccc(Cl)c(C(=O)OC)c3)C(=O)C12 (configuration not stated)
103 | O=C(c1ccoc1)N1CCC(Oc2cc(N3CCCCC3)ncn2)C1 (configuration not stated)
104 | Cc1ccc(C(=O)Cn2c(=O)n3nc(C)nc3c3ccccc32)c(C)c1
102 | Cc1cc(-c2csc(S(=O)(=O)N3CCOCC3)c2)on1
120 | CC1CC(C)CN(C(=O)c2ccc(N3CC4CC(C3)c3cccc(=O)n3C4)c(NC(=O)Cc3c(F)cccc3Cl)c2)C1 (configuration not stated)

Additional structures follow.
GIV Gai3 FP | mol
110 | COC(=O)c1ccc2c(=O)n(CCN3CCOCC3)c(SCC(=O)NCCc3ccc(OC)c(OC)c3)nc2c1
111 | CCCc1cc(C2CCCN2Cc2cn[nH]c2-c2ccc(CC)cc2)no1 (configuration not stated)
99 | CCOc1cccc(C2Nc3ccc(CC)cc3[C@H]3OCCC[C@@H]23)c1OC (some centres not stated)
97 | O=C(Nc1ccccc1)N1CCN(Cc2cc(=O)n3nc(-c4ccccc4)sc3n2)CC1
103 | C=CCSc1nc2c(cnn2-c2ccc(F)cc2)c(=O)[nH]1
107 | Cn1c(CNC(=O)C2CCC2)nc2c1CN(C(=O)c1ccc(Cl)s1)CC2
102 | O=C(NCCc1cscn1)[C@H]1CSCN1C(=O)C1CCCCC1
106 | CCN(CC)C1=NC(C(F)(F)F)(C(F)(F)F)N=C(c2cccc(Cl)c2)O1
106 | CCOc1ccccc1NC(=O)c1c(NC(=O)c2ccc(C)cc2)sc2c1CCCCC2
107 | N#C/C(=C\C1CCCCC1)c1nc(-c2ccc(Cl)cc2)cs1
114 | Clc1ccc(Nc2nc(Cl)nc(NCCN3CCOCC3)n2)cc1
102 | O=C1COc2ccccc2N1Cc1nc(-c2ccc3c(c2)nnn3C2CCCC2)no1

The final four entries of the section above open the next one.
GIV Gai3 FP | mol
106 | CCOc1ccccc1NC(=O)c1c(NC(=O)c2ccc(C)cc2)sc2c1CCCCC2
107 | N#C/C(=C\C1CCCCC1)c1nc(-c2ccc(Cl)cc2)cs1
114 | Clc1ccc(Nc2nc(Cl)nc(NCCN3CCOCC3)n2)cc1
102 | O=C1COc2ccccc2N1Cc1nc(-c2ccc3c(c2)nnn3C2CCCC2)no1
107 | Cc1cc(N(C)C)nc(Nc2ccc(NC(=O)C(C)(C)C)cc2)n1
100 | Cc1ccc(-c2noc(C3CCCN3S(=O)(=O)c3cccc(Cl)c3C)n2)cc1 (configuration not stated)
102 | C/C(O)=C1/C(=O)NC23CCCCC2C1c1ccccc1O3 (configuration not stated)
103 | Cc1cc(C2CCCN2C(=O)c2cnn3c(C(F)(F)F)cc(-c4ccccc4)nc23)no1 (configuration not stated)
114 | COC(=O)C1CC(=O)OC12CCCCC2 (configuration not stated)
103 | Cc1c(S(=O)(=O)N2CCCC2)cc(C(=O)n2ccnc2)n1C
100 | Cc1noc(-c2ccc(S(=O)(=O)N3CCC(C)CC3)s2)c1C
105 | Cc1ccc(NS(=O)(=O)c2cc(-c3ccc(=O)[nH]n3)cc(C)c2C)cc1C
106 | Cc1noc(/C=C/c2ccc(S(=O)(=O)N3CCOCC3)s2)c1NC(=O)C1CC1
99 | CNC(=O)c1ccc(-c2nc3cc(NS(=O)(=O)c4ccc(OC)c(Cl)c4)ccc3n2C)cc1
110 | O=C(CSc1nnc2c3sc(N4CCCC4)nc3ncn12)Nc1cccc(Cl)c1
103 | O=C(N[C@H]1C[C@@H]2C[C@H]1CN2C(=O)CSc1ccccc1)c1cccs1

Reprinted at random: five records from the list, in no set order.
GIV Gai3 FP | mol
103 | O=C(N[C@H]1C[C@@H]2C[C@H]1CN2C(=O)CSc1ccccc1)c1cccs1
100 | Cc1noc(-c2ccc(S(=O)(=O)N3CCC(C)CC3)s2)c1C
103 | Cc1c(S(=O)(=O)N2CCCC2)cc(C(=O)n2ccnc2)n1C
99 | CNC(=O)c1ccc(-c2nc3cc(NS(=O)(=O)c4ccc(OC)c(Cl)c4)ccc3n2C)cc1
114 | COC(=O)C1CC(=O)OC12CCCCC2 (configuration not stated)

More structures:
GIV Gai3 FP | mol
100 | c1cc(-c2noc(C3CC3)n2)cc(N2CCOCC2)n1
107 | Cc1nc(-c2csc(S(=O)(=O)N3CCCC(C(=O)NCc4ccccn4)C3)c2)no1 (configuration not stated)
183 | CC(C)N1C(=O)/C(=C\c2ccc(N(C)C)cc2)SC1=Nc1ccccc1
107 | COC(=O)c1c(-c2cccc(F)c2)noc1N1CCCC1
106 | Cn1c(=O)n(C)c2cc(S(=O)(=O)Nc3ccc(F)c(F)c3)c(Cl)cc21
106 | CCCNC(=O)CN1CCN(C(=O)c2sc3ncccc3c2-n2cccc2)CC1
104 | CCOc1cccc2c1OC(c1ccc(C(=O)OC)cc1)N1N=C(c3cccnc3)CC21 (configuration not stated)
116 | Cc1c(C(=O)O)sc2ncnc(NC3CCCCC3)c12
106 | CCC(CC)c1nc2c(c3c1[nH]c1ccccc13)C(=O)CC(C)(C)C2
103 | COc1ccc(F)cc1-c1cc(N2CCN(C(=O)NC3CCCCC3)CC2)ncn1
98 | O=C(Nc1ccccc1Br)N1CCN(Cc2nc3cccnc3n2-c2ccccc2)CC1
101 | CCCc1c(C)nc2ncnn2c1Sc1ccc(N(C)C)cc1

Next section.
GIV Gai3 FP | mol
133 | Fc1ccc(-c2noc(Cc3nc(-c4cccc(Cl)c4)cs3)n2)cc1
103 | COc1ccc(C(=O)Nn2c(SCC(=O)Nc3ccc(C)c(Cl)c3)nc3ccccc3c2=O)cc1
107 | O=C1C2C3c4ccccc4C(c4ccccc43)C2C(=O)N1c1ccc(Oc2ccc3ccccc3c2)cc1 (configuration not stated)
118 | CCOC(=O)C1=C(C)NC2=C(C(=O)c3ccccc32)C1c1ccc(C(C)C)cc1 (configuration not stated)
99 | COc1ccc(N2C(=O)C(N3C(=O)c4ccc([N+](=O)[O-])cc4C3=O)C2c2cc(Br)ccc2OC)cc1 (configuration not stated)
105 | COc1ccc(C2Nc3ccc(Cl)cc3C(c3ccccc3)O2)cc1OC (configuration not stated)
96 | O=S(=O)(c1cc(-c2noc(C3CC3)n2)cs1)N1CC=C(c2ccccc2)CC1
107 | Nc1nc(=O)n(C2OC(CO)C(O)C2O)cc1Br (configuration not stated)
110 | CC(=O)N1CCn2c3c(c4cc(C)ccc42)CCCC31 (configuration not stated)
112 | CCCCCn1c(SCC(=O)c2ccccc2)nc2cc(C(=O)N3CCC(C(N)=O)CC3)ccc2c1=O
106 | O=c1oc2ccc(Cl)cc2cc1-c1csc(Nc2cc(C(F)(F)F)ccc2Cl)n1
105 | CC(C)c1cc(C2CCCN2C(=O)Nc2ccccc2)no1 (configuration not stated)

(cont.)
GIV Gai3 FP | mol
105 | O=C(NCc1ccccc1)Nc1ccc(-c2nc(-c3cccc(Br)c3)co2)cc1
103 | Cc1ccc(CNC(=O)Nc2cccc(CCc3nc4ccccc4n3C)c2)cc1
104 | NC(=O)c1ccc2c(c1)OCCCO2
105 | O=C(Cn1c(=O)c(=O)n(Cc2ccncc2)c2ncccc21)NCCN1CCCCC1
105 | CCOC(=O)C1CCN(C(=O)CS(=O)Cc2cnn(-c3ccccc3)c2-n2cccc2)CC1 (configuration not stated)
103 | C=CCn1c(=O)c2cnc(-c3ccc(Cl)cc3)nc2n(CC)c1=O
106 | Cc1ccccc1N=CC12c3ccccc3C(c3ccccc31)C1C(=O)N(c3ccc(Br)cc3)C(=O)C12 (configuration not stated)
115 | Cc1ccc(CNC(=O)C2(C)CCCN(C(=O)c3ccc(Br)cc3)C2)cc1 (configuration not stated)
102 | O=C(NCc1nc2cccnc2n1Cc1ccc(F)cc1)c1ccncc1
105 | Cc1cc2c(cc1C)C(c1cccc(F)c1)CC(=O)N2 (configuration not stated)
106 | CC1(C)C2([N+](=O)[O-])CN3CC1([N+](=O)[O-])CN(C2)C3c1cc(Br)ccc1O (configuration not stated)
109 | Cc1ccc(NC(=O)C(CC(C)C)N2C(=O)c3ccccc3C2=O)cc1Cl (configuration not stated)

Next section
GIV Gai3 FP | mol
112 | CCOc1cc(C(=O)Nc2nnc(SCC(=O)Nc3nccs3)s2)cc(OCC)c1OCC
105 | CCC1(CC)Cc2ccccc2-c2nc(NCCCO)n(Cc3ccccc3)c(=O)c21
102 | COC(=O)c1ccc2c(=O)n(Cc3ccc(C(=O)NCCCN4CCN(c5ccccc5F)CC4)cc3)c(=S)[nH]c2c1
104 | CCOC(=O)C1=C(C)NC2=C(C(=O)C(C(=O)OCC)C(c3cccc(OC)c3)C2)C1c1ccc(OC)cc1 (configuration not stated)
101 | CNC(=O)C1CCN(c2nc3ncn(CC(=O)NC(C)C)c(=O)c3s2)CC1
127 | COc1ccc(C(=O)CCNc2ccc3c(c2)OCCO3)cc1
112 | O=[N+]([O-])c1ccc2c(c1)C=C1CCCCC1(NCc1ccccc1)O2 (configuration not stated)
109 | CCOc1cc(CN2CCCC2c2c(C)noc2CC)ccc1OC(C)C (configuration not stated)
112 | O=C(Nc1c2c(nn1-c1ccc(F)cc1)CS(=O)(=O)C2)c1ccc(S(=O)(=O)N2CCCCC2)cc1
101 | COc1ccc(Cl)cc1C(=O)NCCc1sc2nc(-c3ccc(C)cc3)nn2c1C
117 | O=S(=O)(c1ccccc1)N(CC(O)CN1CCCC1)c1ccccc1 (configuration not stated)
102 | O=C(Nc1ccc(Oc2ccc(Cl)cc2)cc1)c1cc2ccc(O)cc2oc1=O

(cont.)
GIV Gai3 FP | mol
105 | CC1CCN(S(=O)(=O)c2cccc3nonc23)CC1
97 | C=CCN1CCN(c2ccc3nnc(CCc4nc(-c5ccccc5OC)no4)n3n2)CC1
110 | Cc1ccc(-c2noc(Cc3nc(-c4ccccc4)cs3)n2)cc1
115 | COc1ccc(N(CC(=O)N2CCN(c3ccccc3OC)CC2)S(=O)(=O)c2ccccc2)c(OC)c1
101 | CCCN1CCN(c2ncnc3sc(C(=O)N4CCN(c5ccc(OC)cc5)CC4)c(C)c23)CC1
105 | NC(=O)CSc1nc2sc3c(c2c(=O)n1-c1cccc2ccccc12)CCCC3
106 | Cn1c(=O)c2c(nc3n(-c4ccc(F)cc4)c(-c4ccccc4)cn23)n(C)c1=O
103 | O=C(NCCN1CCCC1)C1CCN(c2cnc(N3CCCC3)nc2)CC1
100 | CCOC(=O)c1ccc(NC(=O)CSc2nnc(NC(=O)NC3CCCCC3)s2)cc1
113 | CCOc1cc(/C=C2/SC(=Nc3ccccc3)N(N(C)C)C2=O)ccc1O
111 | CC(C)CCNC(=O)C1(c2ccc(NS(=O)(=O)c3ccc(C(C)C)cc3)cc2)CC1
107 | CC(C)c1cc(C2CCCN2C(=O)c2cc(-c3cccs3)on2)on1 (configuration not stated)

Structures shown so far that have a CF3 group (3):
GIV Gai3 FP | mol
106 | CCN(CC)C1=NC(C(F)(F)F)(C(F)(F)F)N=C(c2cccc(Cl)c2)O1
103 | Cc1cc(C2CCCN2C(=O)c2cnn3c(C(F)(F)F)cc(-c4ccccc4)nc23)no1 (configuration not stated)
106 | O=c1oc2ccc(Cl)cc2cc1-c1csc(Nc2cc(C(F)(F)F)ccc2Cl)n1

Further entries.
GIV Gai3 FP | mol
98 | O=C(Nc1cc(C(=O)N2CCCCCC2)ccc1N1CC2CC(C1)c1cccc(=O)n1C2)c1ccc(Br)o1 (configuration not stated)
101 | COc1ccc(-n2c(=S)[nH]c3cc(C(=O)NCc4ccccc4Cl)ccc3c2=O)c(OC)c1
105 | Cc1nc(-c2ccc(C(=O)N3CCC(C)CC3)cc2)cs1
125 | COc1cccc(C(=O)NC(/C=C/c2ccccc2)c2cc(Cl)c3cccnc3c2O)c1 (configuration not stated)
106 | O=C(CSc1nccnc1N1CCSCC1)Nc1ccc2c(c1)OCCO2
114 | Cc1nc(N2CCOCC2)c2c(C)c(C(=O)Nc3cccc([N+](=O)[O-])c3)sc2n1
98 | CC(C)(C)NC(=O)NC1CCN(C(=O)C2CCCC2)C1 (configuration not stated)
107 | NC(=O)c1oc2ccc(Br)cc2c1N
105 | COc1ccc(NC(=O)CNS(=O)(=O)c2cc(-c3noc(C)n3)ccc2C)cc1
110 | CC(C)n1c(SCc2cc(=O)n3ccccc3n2)nc2c(-c3ccccc3)cn(C)c2c1=O
100 | CCCC(NS(=O)(=O)c1cccc2nsnc12)C(=O)O (configuration not stated)
112 | O=C(CSc1nnc2c(n1)-c1cccc3cccc-2c13)Nc1cccc([N+](=O)[O-])c1

Remaining list, next part.
GIV Gai3 FP | mol
116 | CCOc1ccc2c(c1)C1=C(SC(C(=O)OC)=C(C(=O)OC)C13SC(C(=O)OC)=C(C(=O)OC)S3)C(C)(C)N2C(=O)C(F)(F)F
109 | O=C(CN1CCCCC1)N1CCN(C(=O)c2ccccc2)C1
99 | O=C(C1CCN(c2cnc(N3CCSCC3)nc2)CC1)N1CCOCC1
104 | Cn1c(=O)c2c(nc(N3CCOCC3)n2CCCc2ccccc2)n(C)c1=O
